KCNQ2 block = KCNQ2 channel blockers in CHO-K1 cells – cell-based, FluxOR thallium flux, B-score, primary screen (AID 2156); O88943; actives 1.1% (n = 310,000); 20 min; active compounds read low; only compounds with negative scores are shown here; some inactives read as strong as hits; B-score at 10 µM;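 active = fluorescence ratio B-score at most minus 3 library SDs, with starting brightness B-score within 2 library SDs, cut at about -5.5 in these data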
Target sequence (O88943 whole entry, looked up): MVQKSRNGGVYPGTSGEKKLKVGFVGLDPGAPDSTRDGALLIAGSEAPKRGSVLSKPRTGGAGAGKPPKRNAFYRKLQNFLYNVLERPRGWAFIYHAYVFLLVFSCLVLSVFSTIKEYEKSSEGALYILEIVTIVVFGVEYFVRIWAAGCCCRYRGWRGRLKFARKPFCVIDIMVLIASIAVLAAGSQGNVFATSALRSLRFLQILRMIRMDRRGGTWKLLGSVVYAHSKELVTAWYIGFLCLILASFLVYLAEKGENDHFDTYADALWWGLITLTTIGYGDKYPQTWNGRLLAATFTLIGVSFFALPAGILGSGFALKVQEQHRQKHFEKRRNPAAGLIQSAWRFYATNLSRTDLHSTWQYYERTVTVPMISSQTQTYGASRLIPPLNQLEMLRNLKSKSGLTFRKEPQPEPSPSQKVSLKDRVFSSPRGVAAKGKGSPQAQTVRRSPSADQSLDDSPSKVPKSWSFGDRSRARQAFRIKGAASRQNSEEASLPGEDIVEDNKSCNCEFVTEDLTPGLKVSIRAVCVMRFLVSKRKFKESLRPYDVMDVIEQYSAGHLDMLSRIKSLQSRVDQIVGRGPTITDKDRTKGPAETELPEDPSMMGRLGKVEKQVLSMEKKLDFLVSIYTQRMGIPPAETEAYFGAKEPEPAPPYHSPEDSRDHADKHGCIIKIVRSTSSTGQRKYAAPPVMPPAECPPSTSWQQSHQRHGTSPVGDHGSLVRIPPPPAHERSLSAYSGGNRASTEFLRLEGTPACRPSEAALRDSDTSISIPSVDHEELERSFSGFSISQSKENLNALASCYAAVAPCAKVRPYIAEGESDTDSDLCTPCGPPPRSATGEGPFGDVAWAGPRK
KCNQ2 block baseline = also measured in KCNQ2 block; calls as there; B-score; measured here: initial fluorescence intensity artifact check;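 brightness before thallium and not channel activity; 0 = typical well and far values either way flag optical interference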
* marks the source's active call; other numbers are inactive results; i = inactive. These rows are one share of the data (hit frequency here may not be typical).

SMILES	KCNQ2 block	KCNQ2 block baseline
CCOc1ccc(Nc2ncnc(N)n2)cc1	i	1.49
O=CN1CCN(C(C(=O)NC2CCCCC2)c2ccc(Cl)cc2)CC1 (configuration not stated)	i	0.67
CC(=O)Nc1ccc(Sc2ncccc2C(=O)Nc2ccc(OC(F)(F)F)cc2)cn1	i	0.16
Cc1cccc(NCc2nc3ccccc3n2Cc2ccccc2)c1	-8.38*	0.11*
Cc1ccc(NC(=S)c2nc3ccccc3[nH]2)cc1	i	1.44
O=C(Cc1ccc(-c2ccccc2)cc1)Nc1ccccn1	i	0.05
COC(=O)c1cc2c(ccn2-c2ccc(F)cc2)n1C(C)C	i	2.31
Cc1ccc(C(C(=O)NC(C)(C)C)N(C(=O)CCC(=O)Nc2ccccn2)c2ccccc2F)cc1 (configuration not stated)	i	0.66
O=c1[nH]c2cc(Cl)c([N+](=O)[O-])nc2[nH]1	i	0.53
O=c1c2ccccc2c(-c2ccc(F)cc2)nn1-c1ccc(C(F)(F)F)cc1	i	-0.47
CC(C)(C#N)Nn1cnnc1	i	0.03
O=C(CNC(=O)C1CCCCC1)NNC(=O)c1ccccc1Br	i	-1.95
CCOC(=O)CC(N)c1ccc(OC)cc1 (configuration not stated)	i	0.21
O=C(CN1C(=O)c2ccccc2C1=O)OCCOCCN=C1NS(=O)(=O)c2ccccc21	i	0.59
COC(=O)COc1ccc2c(=O)c(-c3ccccc3OC)coc2c1	i	0.4
CC1CCCN(C(=O)C2CCN(c3nc(-c4ccccc4)nc4c3CCC4)CC2)C1 (configuration not stated)	i	1.6
CCCN1CCN(CCCNC(=O)CCN2C(=O)COc3ccccc32)CC1	i	0.2
Cc1ccc(C(=O)NCc2ccccn2)cc1Cl	i	0.62
Clc1ccc(-c2nc(NCCCN3CCOCC3)c3ccccc3n2)cc1	-7.92*	0.83*
CCSc1nsc(NC(=O)Nc2cccc(OC)c2)n1	i	-0.11
COc1ccc(C2NCCO2)cc1OC (configuration not stated)	i	-1.76
Cn1cc(/C=C/c2cc[n+](C)cc2)c2cc(Cl)ccc21	i	45.6
CCC(C)[C@H]1CNC(=S)N1CCc1cccc2ccccc12 (some centres not stated)	i	0.21
CC(C)(C)NC(=O)C(c1ccc(F)cc1)N(Cc1ccco1)C(=O)c1csnn1 (configuration not stated)	i	0.41
O=C(CCn1cnc2ccccc2c1=O)Nc1ccc(Cl)c(Cl)c1	i	-1.07
CC12CC(NC(=O)N1c1cccc(C(=O)Nc3ncn[nH]3)c1)c1ccccc1O2 (configuration not stated)	i	-0.23
Cc1cc(C)cc(N(C(=O)Cc2cccs2)C(C(=O)NC2CCCCC2)c2ccccn2)c1 (configuration not stated)	i	-0.17
COc1ccc(CCC(=O)NCCOc2ccc(C)cc2)cc1	i	-1.02
O=[N+]([O-])c1ccccc1/C=C/C=N/n1c(-c2ccccc2F)n[nH]c1=S	i	0.6
COC(=O)CSc1nn(-c2ccc(F)cc2)c(=S)s1	i	0.34
CCCn1c(SCC(=O)c2c(C)[nH]c(C)c2C(=O)OCC)nc2ccccc21	i	-0.21
Cc1nn(Cc2ccc(Cl)cc2Cl)c(C)c1NC(=O)c1ccc(COc2cc(Cl)ccc2Cl)o1	i	0.78
COc1cccc(-c2cnc(NCc3cc(Cl)ccc3O)n2C)c1	i	-1.72
Cc1ccc(S(=O)(=O)N(CCO)Cc2ccccc2)cc1	i	-2.81
COc1ccccc1NC(=O)N(Cc1ccco1)Cc1cc2cc(C)cc(C)c2[nH]c1=O	-6*	1.13*
O=C(/C=C/c1ccc(Cl)cc1)N1CCN(c2ccc(Cl)cc2[N+](=O)[O-])CC1	i	0.16
CCCc1cc(=O)oc2c(CN3CCN(C)CC3)c(O)c(Cl)cc12	i	-2.18
COc1ccc(/C=N/NS(=O)(=O)c2ccccc2)cc1OS(=O)(=O)c1ccc(C)cc1	i	-0.25
COc1ccccc1S(=O)(=O)Cc1ccc(C(=O)N2CCN(c3ccccc3)CC2)o1	i	-1.13
CCOC(=O)c1cc(-c2ccncc2)nc2c1c(C)nn2C	i	-2.94
O=C(COC(=O)c1ccccc1Br)NCc1ccccc1	i	0.11
O=C(O)c1ccccc1CSc1nc2ccccc2o1	i	-0.34
CSc1ccc(CN2CCN(Cc3ccccc3)C(CCO)C2)cc1 (configuration not stated)	i	-0.43
CCC1SC2=NC(C)=C(C(=O)OC)C(c3cccs3)N2C1=O (configuration not stated)	i	1.3
COc1ccc(NC(=O)Cn2cnc3c(oc4nc5c(cc43)COC(C)(C)C5)c2=O)cc1	i	4.7

Five structures already listed, arranged by SMILES length, falling.
SMILES	KCNQ2 block	KCNQ2 block baseline
O=C(/C=C/c1ccc(Cl)cc1)N1CCN(c2ccc(Cl)cc2[N+](=O)[O-])CC1	i	0.16
COc1ccccc1NC(=O)N(Cc1ccco1)Cc1cc2cc(C)cc(C)c2[nH]c1=O	-6*	1.13*
CCC1SC2=NC(C)=C(C(=O)OC)C(c3cccs3)N2C1=O (configuration not stated)	i	1.3
CSc1ccc(CN2CCN(Cc3ccccc3)C(CCO)C2)cc1 (configuration not stated)	i	-0.43
CCOC(=O)c1cc(-c2ccncc2)nc2c1c(C)nn2C	i	-2.94

(further entries)
SMILES	KCNQ2 block	KCNQ2 block baseline
C[N+](C)(C)CCCCCC(=O)/C=N/O	i	1.24
CC(=O)c1ccc(N2Cc3ccccc3/C2=N\C(=O)Nc2ccccc2)cc1	i	0.05
COc1ccc(C2CC(c3ccccc3)=NN2c2ccc(S(N)(=O)=O)cc2)cc1OC (configuration not stated)	i	-0.88
O=C(CSc1nnc(-c2ccc(S(=O)(=O)N3CCCC3)cc2)n1CC1CCCO1)NC1CC1 (configuration not stated)	i	-1.44
CC1CCCC(C)N1C(=O)CSc1nc(N)cc(N)n1 (configuration not stated)	i	-1.77
O=C(CN(c1cccc(C(F)(F)F)c1)S(=O)(=O)c1ccc(Cl)c([N+](=O)[O-])c1)NCc1ccccc1	i	0.26
CCOc1ccccc1NC(=O)Cn1c(=O)n(-c2ccc(OC)cc2OC)c(=O)c2c(C)c(C(=O)N(CC)CC)sc21	i	-0.01
CC(=O)OC1CC(C)(C)N(OC(=O)c2ccc(N)cc2)C(C)(C)C1	i	0.25
COc1ccccc1C1CCN(C(=O)c2cccs2)CC1	i	1.43
CC(C)C(NC(=O)c1ccc(C(C)(C)C)cc1)C(=O)N1CCCC1 (configuration not stated)	i	1.14
CCOC(=O)c1c(NC(=O)Cn2nc(C(=O)O)c3ccccc3c2=O)sc(C)c1C	i	-0.52
Cc1noc(C)c1CSc1ncnc2sc3c(c12)CCC3	i	-0.76
CC1CCCCC1NC(=O)/C(C#N)=C/c1ccccc1F (configuration not stated)	i	0.6
Cc1ccc(C(=O)OCn2ncc(Cl)c(Cl)c2=O)cc1	i	-0.93
O=C(NCCc1c[nH]c2ccccc12)c1cc2sccc2n1Cc1ccccc1	-6.52*	-0.99*

Pulled by compound from above:
SMILES	KCNQ2 block	KCNQ2 block baseline
COc1ccc(C2CC(c3ccccc3)=NN2c2ccc(S(N)(=O)=O)cc2)cc1OC (configuration not stated)	i	-0.88
CC1CCCC(C)N1C(=O)CSc1nc(N)cc(N)n1 (configuration not stated)	i	-1.77

Later entries
SMILES	KCNQ2 block	KCNQ2 block baseline
CCOc1ccc(NC(=O)NC2CCS(=O)(=O)C2)cc1 (configuration not stated)	i	1.86
CCc1cc(=O)oc2cc(C)cc(OCC(=O)NC3CC3)c12	i	-1.93
CN(CC(=O)Nc1ccccc1Cl)C(=O)COC(=O)C1CCN(c2ccc(C(F)(F)F)cn2)CC1	i	-0.49
Cc1ccc(-n2cc(C(=O)c3ccc(F)cc3)nn2)cc1Cl	i	1.29
C=CCC(=O)N1CCCC(CCC(=O)NCc2ccccc2F)C1 (configuration not stated)	i	1.24
Cc1ccc(S(=O)(=O)Cc2ccc(C(=O)NC3CCCC3)o2)cc1	i	0.49
O=C(NCc1cccc(F)c1F)C1CCC(=O)N(C2CCCCCC2)C1 (configuration not stated)	i	-1.05
CC(=O)N1CCN(c2ccc(NCc3ccc4c(c3)OCO4)cc2)CC1	i	0.01
Cc1nc2ccccc2c(=O)n1/N=C/c1ccco1	i	1.81
COc1cccc(NS(=O)(=O)c2ccc(-c3coc(C)n3)cc2)c1	i	0.1
CN1C(C(=O)Nc2ccccn2)=C(O)c2sc(Cl)cc2S1(=O)=O	i	-2.07
O=C(CSc1nc2ccccc2c(=O)n1-c1ccccc1Cl)Nc1cccc(S(=O)(=O)N2CCOCC2)c1	i	-0.09
COc1ccc(CNC(=O)C2(CC3CC(c4ccccc4)=NO3)CCN(C(=O)Cc3ccc(F)cc3)CC2)cc1 (configuration not stated)	i	-1.2
Cc1ccc(NC(=O)CO/N=C(\N)c2nonc2N)cc1	i	1.54
COc1ccc(S(=O)(=O)Nc2c(C(=O)O)[nH]c3ccccc23)cc1	i	0.08

Entries of single compounds as entered above. Order of values: KCNQ2 block	KCNQ2 block baseline
`COc1ccc(S(=O)(=O)Nc2c(C(=O)O)[nH]c3ccccc23)cc1` across the screens: i	0.08
`C=CCC(=O)N1CCCC(CCC(=O)NCc2ccccc2F)C1` (configuration not stated) across the screens: i	1.24
`COc1cccc(NS(=O)(=O)c2ccc(-c3coc(C)n3)cc2)c1` across the screens: i	0.1
`CN1C(C(=O)Nc2ccccn2)=C(O)c2sc(Cl)cc2S1(=O)=O` across the screens: i	-2.07
`O=C(CSc1nc2ccccc2c(=O)n1-c1ccccc1Cl)Nc1cccc(S(=O)(=O)N2CCOCC2)c1` across the screens: i	-0.09

Other structures:
SMILES	KCNQ2 block	KCNQ2 block baseline
CCN(C(=O)c1cccc(S(=O)(=O)N2CCCCC2)c1)C1CCS(=O)(=O)C1 (configuration not stated)	i	-0.02
CSc1nncn1/N=C/c1ccc([N+](=O)[O-])cc1	i	2.87
COc1cc(NC(=O)CCc2nnc3ccc(NCc4ccco4)nn23)cc(OC)c1	i	1.16
O=C(CN1C(=O)NC2(CCCCC2)C1=O)Nc1cccc(S(=O)(=O)N2CCOCC2)c1	i	1.09
Cc1ccc(C(C)C)c(OCC(=O)Nn2c(C)nc3ccccc3c2=O)c1	i	-0.11
CC(C)N1CCc2c(sc(NC(=O)c3ccc(S(=O)(=O)N4CCCCC4C)cc3)c2C(N)=O)C1 (configuration not stated)	i	1.28
COc1ccc(CCNC(=O)c2ccc3c(c2)N(Cc2ccc(C)cc2)CCS3)cc1OC	i	0.11
CC(=O)c1ccc(S(=O)(=O)N2CCN(c3nc4c(C)c(C)ccc4cc3C#N)CC2)cc1	i	-0.98
O=C(CCC(=O)OCC(=O)c1ccc(-c2ccccc2)cc1)Nc1cccc2cccnc12	i	1.93
CCn1c(C)nc2cc(C(=O)OC(C(F)(F)C(F)F)C(F)(F)C(F)F)ccc21	i	-2.06
COc1ccc(NC(=O)c2c(NC(=O)CCC(=O)O)sc3c2CCCCC3)cc1	i	0.97
COc1ccc([N+](=O)[O-])cc1N(CC(=O)NCCC1=CCCCC1)S(C)(=O)=O	i	0.59
CCOc1ccc(OCC)c(Nc2cc(C)nc3nc(C)nn23)c1	i	-0.64
CC1CC(NC(=O)c2c(O)nc3sccn3c2=O)CC(C)(C)C1 (configuration not stated)	i	0.5
O=C1C2C(C(=O)N1c1ccncc1)C1C=CC2C12CC2 (configuration not stated)	i	1.15
COc1ccccc1NCC(=O)c1ccc(Cl)cc1	i	0.62
O=C(CCl)Nc1ccc(N=Nc2ccccc2)cc1	i	-1.01
Cc1cccc(-c2ocnc2C(=O)Nc2ccccc2C(=O)N2CCCC2)c1	i	-0.98
COC(=O)CN(c1ccccn1)S(=O)(=O)c1ccccc1	i	0.8
COC(=O)CCn1nc(-c2ccc(Cl)cc2)c2ccccc2c1=O	i	0.1
CC(C)(C)c1ccc(/C=C/C(=O)N2CCc3ccccc3C2)cc1	i	0.01
COCOc1cc(O)c(C(=O)/C=C/c2ccccc2)c(OCOC)c1	i	0.52
COc1ccc(C(=O)CN2C(=O)NC(C)(c3ccc(C)cc3)C2=O)cc1OC (configuration not stated)	i	-0.05
COc1ccc(C2(C)NC(=O)NC2=O)cc1OC (configuration not stated)	i	-2.61
Cc1c(Cc2ccccc2)c(=O)oc2c(C)c(OC(C)C(=O)N[C@@H](Cc3ccccc3)C(=O)O)ccc12 (some centres not stated)	-7.65*	-0.09*
Cc1cc(C)c(C(=O)COC(=O)c2ccc([N+](=O)[O-])o2)cc1C	i	-0.1
CCOc1ccc(CNC(=O)c2ccc3c(c2)N(CC)CCS3)cc1	i	0.62
CCOc1cc(C(=O)NCc2nnc(SCC(=O)OC)n2C)cc(OCC)c1OCC	i	1.27
Cc1ccc2scc(CN3CCCC3)c2c1	i	0.01
O=C(CSC1=NCCS1)Nc1nc2c(s1)CCCC2	i	1.49
O=C(COC(=O)CSc1cc(Cl)ccc1Cl)Nc1ncc(C(F)(F)F)cc1Cl	i	-0.08
CC(Cc1cccs1)N(Cc1ccc(Cl)cc1)C(=O)c1ccncc1 (configuration not stated)	i	-0.76
Cc1ccc(/C=C/C(=O)O)cc1S(=O)(=O)Nc1ccc2c(c1)OCO2	i	0.07
Clc1ccc2nc3c4ccccc4cnn3c2c1	i	-1.49
O=C(NNC(=O)c1ccccc1C(=O)O)c1ccc(S(=O)(=O)N2CCCCC2)cc1	i	-3.43
c1cc2c(cc1-c1csc(NNC3=NCCCCC3)n1)OCCO2	i	-2.06
COCc1cc(C)nc(SCC(=O)Nc2ccc3[nH]c(=O)[nH]c3c2)c1C#N	i	1.03
CCOc1ccc(S(=O)(=O)NCCC(=O)NCC(c2ccc(OC)cc2)N2CCCCC2)cc1 (configuration not stated)	i	-0.64
CC(=O)Oc1ccc(C(=O)NCc2ccco2)cc1	i	0.04
CCN1C(=O)C(=Cc2cccc(OC)c2Oc2ccc([N+](=O)[O-])cc2[N+](=O)[O-])SC1=S	i	-1.03
O=C(Nc1ccc(S(=O)(=O)Nc2nccs2)cc1)c1cc(-c2ccccc2Cl)nc2ccccc12	i	3.51
N#C/C(=C\c1ccco1)C(=O)NCC1CCCO1 (configuration not stated)	i	0.15
